eIF4H FP inh – inhibitors of RNA binding by human eIF4H; Q15056; eIF4H fluorescence polarization binding assay; inhibition, % at 35 µM; actives 0.94% (n = 290,000);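 active = 50% or more with normal probe brightness, or confirmed in later tests; inconclusive = above 50% with abnormal brightness, or retests that disagree; inactive = below 50% or failed in later tests; about a fifth of its hits are not listed in these tables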;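 note: calls also rest on retests at 20 µM and on dose response follow-up; 0% = protein and probe with vehicle and 100% = probe without protein; strong numbers were not always called active; many hits fall short of the cut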
Yeast UUG start – yeast start codon fidelity modulation. S. cerevisiae UUG-firefly luciferase reporter, luminescence/redox ratio. activity score, % at 18.7 µM. actives 0.13% (n = 350,000). AID 602363;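 active = replicate mean at a twofold rise or more, about +100% in these data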;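 note: firefly luciferase made from a UUG start codon reports start codon fidelity; reporter light over untreated wells divided by growth signal over untreated wells; some hits fall short of that in this replicate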
CSC inhib – cancer stem cell inhibition; cancer stem cell-like cells viability, luminescence; inhibition, % at 7.5 µM; actives 1.1% (n = 300,000);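 active = mean at 75% or more and at least half the replicates too; inconclusive = mean and replicates disagree; tested in HMLE shEcad cells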;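 note: 0% = median of negative and 100% = median of positive control wells; the first replicate is given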
PABP polyA inh – blocks human PABP binding to poly(A) RNA; P11940; fluorescence polarization; inhibition, % at 35 µM; actives 1% (n = 290,000); AID 2014;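 active = 50% or more with normal probe brightness, or confirmed in later tests; inconclusive = above 50% with abnormal brightness, or retests that disagree; inactive = below 50% or failed in later tests; about a fifth of its hits are not listed in these tables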;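 note: calls also rest on retests at 20 µM and on dose response follow-up; controls were probe without protein and protein plus probe with vehicle; some compounds called inactive have numbers as strong as hits; many hits fall short of the cut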
Target sequence (P11940 whole entry, looked up): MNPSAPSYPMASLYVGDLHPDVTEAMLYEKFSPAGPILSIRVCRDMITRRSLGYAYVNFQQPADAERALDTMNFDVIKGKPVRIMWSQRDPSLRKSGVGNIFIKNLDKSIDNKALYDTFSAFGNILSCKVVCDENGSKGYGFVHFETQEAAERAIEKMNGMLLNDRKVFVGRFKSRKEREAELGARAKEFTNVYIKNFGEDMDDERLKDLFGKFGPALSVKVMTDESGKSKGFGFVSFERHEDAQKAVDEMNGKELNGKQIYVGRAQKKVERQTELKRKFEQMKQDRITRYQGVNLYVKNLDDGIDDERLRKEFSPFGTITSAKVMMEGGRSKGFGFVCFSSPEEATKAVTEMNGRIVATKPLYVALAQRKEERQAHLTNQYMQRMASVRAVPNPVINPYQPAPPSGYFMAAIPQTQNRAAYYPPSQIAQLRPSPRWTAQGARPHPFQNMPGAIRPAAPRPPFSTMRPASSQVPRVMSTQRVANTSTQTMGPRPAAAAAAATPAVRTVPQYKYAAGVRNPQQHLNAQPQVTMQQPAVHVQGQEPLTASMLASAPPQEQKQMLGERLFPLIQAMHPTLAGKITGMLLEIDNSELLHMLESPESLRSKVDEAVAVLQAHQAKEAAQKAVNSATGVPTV
Rce1 inh – yeast Ras-converting enzyme inhibition | Q03530 | yeast membranes, quenched prenylated peptide cleavage fluorescence | calls only | actives 0.27% (n = 290,000);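 active = fall in fluorescence gain of 50% or more versus controls, with final raw signal at or below 3038400; inconclusive = same 50% fall but final raw signal above 3038400; inactive = fall in fluorescence gain under 50%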;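 note: plate controls were neutral control wells for no effect and wells lacking membranes for full effect; tested at 10 µM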
Target sequence (Q03530 whole entry, looked up): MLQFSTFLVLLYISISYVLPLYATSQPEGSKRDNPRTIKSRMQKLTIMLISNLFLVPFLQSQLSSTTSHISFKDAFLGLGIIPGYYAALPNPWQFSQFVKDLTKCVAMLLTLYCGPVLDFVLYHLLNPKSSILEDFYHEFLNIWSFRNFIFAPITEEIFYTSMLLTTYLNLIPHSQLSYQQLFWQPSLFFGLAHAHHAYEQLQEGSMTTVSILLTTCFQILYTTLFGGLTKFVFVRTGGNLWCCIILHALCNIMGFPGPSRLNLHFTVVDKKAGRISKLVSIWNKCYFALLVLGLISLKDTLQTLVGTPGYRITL
HIV Env fusion – inhibitors of HIV Env-mediated cell fusion | AID 651610 | actives 1.1% (n = 360,000) | inhibition, % at 12.3 µM | HeLa-JRFL Env/CEM21 cell fusion, luciferase;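 active = mean replicate inhibition score of at least 50 and every replicate individually at or above 50; inconclusive = only one of the two criteria met; inactive = mean below 50 and not all replicates reaching 50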;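 note: 0% = plate neutral controls and 100% = maraviroc near 300 nM; one replicate is shown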
MT1-MMP act inh – inhibitors of human MT1-MMP activation; actives 0.061% (n = 360,000); AID 651647; P50281; HT1080 RFP-PRO-GFP cells, GFP/RFP ratio fluorescence, overnight; percent of plate control window, DMSO zero; GFP/RFP ratio change, % at 20 µM;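 active = GFP/RFP ratio change of at least 30% with cell ATP level not reduced by more than half and red fluorescence within 50% of control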; note: strong numbers were not always called active
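Test system: HT1080 RFP-PRO-GFP cells; Benchmarks: DMSO and RFP-L50D-GFP cell wells; Timing: cells overnight before dosing, compound overnight, 37 °C, 5% CO2; Compound: one 20 µM compound dose with 1% DMSO; Read-out: GFP/RFP fluorescence ratio.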
eIF4H FP inh retest – second read-out of eIF4H FP inh, no call of its own (marks repeat the call); inhibition, %; compound at 20 µM; confirmation average;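 mean of two retest wells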
PABP polyA inh retest – recorded beside PABP polyA inh, whose call it bears; inhibition, %; compound at 20 µM; confirmation repeats;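 mean of two retest wells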
MT1-MMP act inh RFP – also measured in MT1-MMP act inh; calls as there; RFP signal change, %; measured here: RFP expression control read;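 0 = vehicle wells; hits needed this value within 50% of zero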
* hit, by the source's call; i = inactive; ? = inconclusive; · = not tested or not shown; & = joins results of further samples; [ ] = dose if it differs, or a comment.

SMILES | eIF4H FP inh | Yeast UUG start | CSC inhib | PABP polyA inh | Rce1 inh | HIV Env fusion | MT1-MMP act inh | MT1-MMP act inh RFP | others
COc1ccc(/C=C/C(=O)NCC(=O)N/N=C/c2cccnc2)cc1 | -10 | · | -6 | 10 | i | 16 | 3 | 1
c1ccc(-c2nn3c(-c4ccccc4)nnc3o2)cc1 | · | -15 | · | · | · | -18 | 0 | 0
CCCC(=O)Nc1ccc(Br)cn1 | 1 | -14 | -11 | 5 | i | · | 2 | 3
CC(C)CCN1C(=O)c2ccc(C(=O)Nc3ccccc3C(=O)O)cc2C1=O | 6 | · | 7 | 11 | i | 5 | 1 | 1
CC(C)C[C@@H](CN1CCC[C@@H]1CN1C(=O)C(=O)NC[C@@H]1Cc1ccccc1)N1C[C@H](Cc2ccc(O)cc2)N(CC2CCCCC2)C(=O)C1=O | · | 22 | · | · | · | -31 | -2 | -1
Cc1cc(S(=O)(=O)NCc2ccccc2)ccc1OCC(=O)NCc1ccncc1 | 5 | -11 | 9 | 41 | i | 0 | -4 | 0
O=P(c1ccccc1)(c1ccccc1)C(O)c1ccc(Br)cc1 (stereo unspecified) | 4 | -31 | -4 | -3 | · | -2 | 5 | 2
O=C(COC(=O)CCC(=O)c1ccc(Cl)cc1)NCC1CCCO1 (stereo unspecified) | -3 | -10 | 9 | -2 | i | · | -4 | -3
Cc1ccc(-c2cc(C(=O)NCc3cccs3)no2)cc1 | 1 | -17 | -13 | -4 | i | · | -3 | 1
Cc1c(C(=O)N2CCCc3ccccc32)oc2ccc(S(=O)(=O)N3CCOCC3)cc12 | -8 | -13 | · | -6 | i | · | -14 | -12
C[C@H]1CN([C@@H](C)CO)C(=O)c2cc(C#CC3(O)CCCC3)cnc2O[C@H]1CN(C)C(=O)C1CC1 | · | -3&5 | · | · | · | 14[16.7 µM] | -6 | -2
COCCCNC(=O)C1CC(=O)N(c2ccc(C)cc2)C1 (stereo unspecified) | 7 | -5 | -20 | -2 | · | 4 | 2 | 3
CC(C)(C)OC(=O)C[C@@H]1C/C=C\C[C@H](CC(=O)N(CCO)Cc2ccccc2)C(=O)N[C@H](Cc2ccccc2)COC1=O | · | 6 | · | · | · | 15 | 0 | 2
CCN(CC(=O)Nc1ccc(OC)cc1)C(=O)C1CC(=O)N(Cc2ccccc2)C1 (stereo unspecified) | · | 12 | · | · | · | -6 | 1 | 5
O=C(NC1CCCCC1)C1CC(=O)N(c2ccc(Cl)cc2)C1 (stereo unspecified) | -2 | -12 | 1 | 1 | i | -22 | 0 | 2
Cc1c(C)n(CCc2c[nH]c3ccccc23)ccc1=O | -14 | -11 | -4 | 8 | i | 6 | 3 | 6
CCc1cccc(NS(=O)(=O)c2c(C)n[nH]c2C)c1 | 10 | 0 | -6 | -8 | i | -63 | 8 | 0
Cc1[nH]c2ccccc2c1N=Nc1c(C)n(C)n(-c2ccccc2)c1=O | 16 | · | 6 | ? | i | 9 | 6 | 3
CCn1c(C(O)c2ccccc2)nc2ccccc21 (stereo unspecified) | 7 | -18 | 5 | -8 | i | · | -2 | -1
NS(=O)(=O)c1ccc(S(=O)(=O)c2ccccc2)nc1 | · | -20 | 4 | · | i | · | -4 | -4
Cc1ccc(C2=NN(CC(=O)NCCN(C)C)C(=O)CC2)cc1 | 4 | -10 | -1 | 13 | i | 6 | 4 | 1
COC(=O)C1=NNC2(c3ccc(C)cc3)C(=O)N(c3ccc(C)cc3)C(=O)C12 (stereo unspecified) | 4 | -23 | -24 | -3 | i | 5 | 0 | 3
O=C(NCc1ccncc1)c1cccc(F)c1 | -8 | -16 | -1 | -5 | i | -4 | 5 | 4
CCCOc1ccc(CC(CC(=O)O)(C(=O)O)C(=O)O)cc1 | -5 | -9 | -9 | -1 | i | · | · | ·
NS(=O)(=O)c1ccc(N/N=C/c2ccc(C(=O)O)cc2)c([N+](=O)[O-])c1 | -6 | -20 | -25 | -5 | i | -6 | 8 | 2
Going on with the list.
SMILES | eIF4H FP inh | Yeast UUG start | CSC inhib | PABP polyA inh | Rce1 inh | HIV Env fusion | MT1-MMP act inh | MT1-MMP act inh RFP | others
O=C(NCc1cccnc1)C(=O)Nc1nc(-c2ccccc2)cs1 | 1 | -21 | 33 | -7 | i | -35 | 2 | -6
O=C(C[C@H]1C[C@@H]2c3cc(NS(=O)(=O)c4ccccc4)ccc3O[C@@H]2[C@H](CO)O1)NC1CCCC1 | · | -1 | · | · | · | 0 | -1 | 1
Cc1ccc(NC(=O)Cn2cccc2)c(C)c1 | 2 | · | · | 7 | i | -97 | 6 | -2
Cc1ccc(-c2nc(CSCC(=O)N3CCN(C(=O)c4ccco4)CC3)c(C)o2)cc1 | 0 | 8 | -6 | 8 | i | 0 | 4 | -9
CC(OC(=O)c1cc(=O)[nH]c2ccccc12)C(=O)NC1CCCCC1C (stereo unspecified) | · | -14 | 4 | · | i | -1 | 0 | 4
Cc1cc(C)c2cc(C#N)c(SCC(=O)Nc3ccc4c(c3)OCO4)nc2c1 | -2 | · | 5 | 0 | i | -6 | -22 | -3
CCOc1cccc(OCCOc2ccc(C(=O)c3ccccc3)cc2)c1 | 3 | -8 | 15 | 10 | i | -3 | 3 | 8
CCOc1cc(N2CCOCC2)c(OCC)cc1NC(=O)CN1C(=O)NC2(CCCCCCC2)C1=O | -5 | 2 | -6 | 13 | i | -11 | 5 | -1
COc1ccc(C(=O)N=S2CCN(C(=O)c3ccc(Cl)cc3)CC2)cc1 | -6 | 8 | 20 | 0 | · | 8 | 0 | -3
CCN(CC(=O)Nc1ccc(OC)cc1)CC(=O)Nc1cccc(S(=O)(=O)N2CCOCC2)c1 | · | -1 | · | · | · | -33 | 1 | 2
C/C(=N\S(=O)(=O)c1ccc(C)cc1)N(C)C | -3 | · | -9 | -5 | i | -5 | 4 | -1
O=C(Nc1ccc(Br)cc1)c1ccco1 | -2 | -13 | 14 | 10 | i | · | 6 | 3
Cn1c(C(=O)N2CCN(c3ccc(F)cc3)CC2)cc2ccccc21 | 5 | 2 | 15 | -2 | i | 3 | 3 | 2
O=C(NCC(c1cccs1)N1CCOCC1)c1ccccc1NS(=O)(=O)c1ccc(Cl)c([N+](=O)[O-])c1 (stereo unspecified) | -12 | · | 10 | -13 | i | 14 | 3 | -8
C=CCC1(CC=C)CCCN1C(=O)CC1C(=O)NCCN1Cc1cccc(OC)c1OC (stereo unspecified) | 1 | · | -4 | -6 | i | -10 | -2 | 3
Cc1ccc(Nc2ccc(C(N)=O)cc2[N+](=O)[O-])cc1C | 15 | · | 30 | -2 | i | -35 | 6 | -1
C=C1CC(C(=O)N/N=C/c2ccc(O)cc2)C1 | 6 | · | 1 | -5 | i | -25 | 1 | 2
O=C(O)c1ccc(Cl)c2c1C1C=CCC1C(c1ccccn1)N2 (stereo unspecified) | 100* | · | -10 | 81* | i | · | · | ·
O=C(/C=C/c1ccccc1)OCC(=O)N1CCCC1 | · | -17 | -16 | · | · | · | 2 | 1
COC(=O)CC1C(=O)NCCN1C(=O)CSc1nnnn1-c1ccc(OC)cc1 (stereo unspecified) | 0 | · | 0 | 73 | i | 1 | 2 | 1 | eIF4H FP inh retest=-8;PABP polyA inh retest=5
O=C(Nc1ccc(OC(F)F)c(Cl)c1)C(c1ccccc1)c1ccccc1 | -3 | · | 40 | 37 | i | 14 | 3 | -1
O=C(Nc1cccc(C(F)(F)F)c1)c1ccc(-c2ccc(F)c(F)c2)c2ccoc12 | · | -39 | · | · | · | 1 | 0 | -1
O=S(=O)(CC12C3C4C5C1C2C(Br)(C43)C51OCCO1)c1ccccc1 (stereo unspecified) | 0 | -15 | · | 12 | i | -2 | 0 | -2
CCN1CCN(C(=O)c2c(-c3ccccc3)noc2C)CC1 | -2 | · | -6 | -4 | i | 0 | -3 | 1
Cc1cc(NC(=O)COC(=O)c2cc(S(=O)(=O)N(C)C)ccc2Cl)no1 | · | -4 | 9 | · | · | · | 3 | 4
(listing goes on)
SMILES | eIF4H FP inh | Yeast UUG start | CSC inhib | PABP polyA inh | Rce1 inh | HIV Env fusion | MT1-MMP act inh | MT1-MMP act inh RFP | others
Cc1ccc(C)c(S(=O)(=O)Nc2ccccc2C(=O)Nc2cc(C)on2)c1 | -15 | -4 | -10 | -7 | i | · | -2 | -1
Cc1ccc(S(=O)(=O)Nc2cccc(Oc3cnccn3)c2)cc1 | -2 | · | 17 | -12 | i | -17 | -3 | -2
Cn1c(SCC(N)=O)nnc1-c1ccccc1 | 0 | · | -7 | 0 | i | · | -3 | 2
COc1ccccc1CCNC(=O)CSCC(=O)Nc1ccccc1F | · | -9 | · | · | · | -16 | -6 | 4
COc1ccccc1C(=O)NC(CCSC)C(=O)NNC(=O)C(C)Oc1ccccc1F (stereo unspecified) | · | -2 | -8 | · | · | · | -2 | 3
COCCCNC(=O)C[C@H]1C[C@H](C(=O)N2CCOCC2)[C@@]2(CCC3CCCC3)c3[nH]c4cc(-c5ccco5)ccc4c3CCN2C1=O | · | -14 | · | · | · | 10 | -3 | -3
O=[N+]([O-])c1ccccc1/C=N/NC1=NCCCCC1 | -9 | · | 5 | 4 | i | -2 | 4 | 5
CN(Cc1ccccc1)C(=O)COC(=O)c1ccc(-n2cnnn2)cc1 | · | -15 | · | · | · | -1 | 3 | 5
COc1ccc(CNC(=O)c2ccc3nc(C)c(N(C)Cc4ccc(NC(C)=O)cc4)n3c2)cc1 | · | -12 | · | · | · | -27 | 4 | -1
C/C=C/c1ccc(OCCCNC)c(OC)c1 | -9 | 13 | -2 | 14 | i | -36 | -3 | 0
O=C(NC(=S)Nc1ccc(Cl)c(C(=O)O)c1)c1cncc(Br)c1 | 2 | 4 | -10 | 2 | i | -2 | -1 | 1
COc1ccc(CNC(=O)CCNS(=O)(=O)c2ccc(Cl)cc2)cc1 | 1 | -2 | 11 | 6 | i | 10 | 3 | 4
COc1cc(/C=N/NC(=O)Nc2ccccc2)ccc1OCCOc1ccccc1C | 1 | -11 | 4 | -1 | i | -28 | 1 | -5
COc1cccc(/C=N/NC(=O)c2cc(-c3cccn3C)n[nH]2)c1O | 14 | · | 87* | 1 | i | 27 | 12 | -4
O=C(Nc1ccc(S(=O)(=O)Nc2ccccc2)cc1)C1CC1 | -12 | -15 | 3 | 23 | i | 5 | 5 | -12
N=C1C(=O)OCC1c1ccccc1NC(=O)Nc1ccccc1 (stereo unspecified) | -4 | · | · | 5 | i | 8 | -4 | -2
Cc1cc(C)n(CC(=O)N2N=C(C(F)F)CC2(O)C(F)F)n1 (stereo unspecified) | -2 | · | 2 | 20 | i | -1 | 1 | 3
CNC(=O)c1ncoc1-c1ccc(Cl)cc1 | -14 | · | 4 | 6 | i | -5 | 0 | 3
O=C(O)CC1C(=O)NCCN1Cc1ccc(F)c(F)c1 (stereo unspecified) | 2 | -11 | 2 | 8 | i | 3 | 0 | 4
CCN(Cc1ccccc1)S(=O)(=O)c1ccc(C(=O)Nc2nnc(C)o2)cc1 | 12 | -25 | 37 | -6 | i | -1 | -3 | -4
CN1CCc2c(sc3c2C(=O)NC(c2ccc4c(c2)OCO4)N3)C1 (stereo unspecified) | 6 | -15 | 1 | 14 | i | · | -11 | 4

Source: PubChem BioAssay (several laboratories)
